INS promoter inh: TRM-6 insulin promoter activity inhibition; TRM-6 cells (human fetal islet line), insulin promoter-eGFP reporter, imaging; reporter expression induced with tamoxifen; AID 1273; inhibition, % at 2 µM; 130,000 tested, 0.9% active;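 active = inhibition above the mean plus 3 SD, with well images judged a real hit on visual review, cut at about 60% in these data, passing the limit was not always enough; inconclusive = inhibition over the cutoff but images rejected on review; inactive = inhibition not above the cutoff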
RGS16-Gao: modulates binding between human RGS16 and Galphao; bead-based flow cytometry RGS16-Galphao binding, fluorescence; actives lie on both sides; binding response (% of control), % at 10 µM; 220,000 tested, 0.38% active; AID 1441;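 active = below 25% or above 175%, edge rows of some plates excepted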;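 note: Galphao activated by GDP with aluminum fluoride before binding; 100% = wells without compound and 0% = beads without RGS; some results beyond the cut were filed as inactive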
Target sequence (O15492 whole entry, looked up): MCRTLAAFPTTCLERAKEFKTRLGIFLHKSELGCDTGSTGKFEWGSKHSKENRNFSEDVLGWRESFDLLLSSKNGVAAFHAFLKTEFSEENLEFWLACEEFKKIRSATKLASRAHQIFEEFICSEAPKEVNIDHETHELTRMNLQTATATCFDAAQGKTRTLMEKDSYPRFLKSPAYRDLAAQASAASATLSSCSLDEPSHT
Target sequence (P09471 whole entry, looked up): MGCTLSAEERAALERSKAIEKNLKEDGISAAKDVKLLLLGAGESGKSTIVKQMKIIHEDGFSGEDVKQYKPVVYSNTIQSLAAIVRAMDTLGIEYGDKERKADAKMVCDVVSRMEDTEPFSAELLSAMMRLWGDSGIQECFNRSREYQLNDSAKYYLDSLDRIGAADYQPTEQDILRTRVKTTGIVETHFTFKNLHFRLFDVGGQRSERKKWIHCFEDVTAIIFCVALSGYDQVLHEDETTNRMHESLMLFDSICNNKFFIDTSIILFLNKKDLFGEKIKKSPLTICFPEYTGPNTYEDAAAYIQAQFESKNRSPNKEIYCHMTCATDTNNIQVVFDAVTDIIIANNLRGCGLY
PKD1 inh: PKD1 (human) kinase inhibition | PKD1 kinase fluorescence polarization assay | inhibition, %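 (about 10 µM by stock and volumes)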 | 200,000 tested, 0.056% active;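 active = inhibition of 50% or more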;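 note: controls were vehicle for no effect and a reference inhibitor for full effect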
GALR2 ag: GALR2 (human) receptor agonism; activation, %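 (tested at 5 µM)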; GALR2-expressing cells, agonist activation read-out; 140,000 tested, 0.48% active;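 active = above mean plus 3 SD of all compounds, about 5% in these data, not always enough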;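 note: 0% = vehicle buffer wells and 100% = reference agonist at full effect; tested in CHO reporter cells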
Target sequence (O43603 whole entry, looked up): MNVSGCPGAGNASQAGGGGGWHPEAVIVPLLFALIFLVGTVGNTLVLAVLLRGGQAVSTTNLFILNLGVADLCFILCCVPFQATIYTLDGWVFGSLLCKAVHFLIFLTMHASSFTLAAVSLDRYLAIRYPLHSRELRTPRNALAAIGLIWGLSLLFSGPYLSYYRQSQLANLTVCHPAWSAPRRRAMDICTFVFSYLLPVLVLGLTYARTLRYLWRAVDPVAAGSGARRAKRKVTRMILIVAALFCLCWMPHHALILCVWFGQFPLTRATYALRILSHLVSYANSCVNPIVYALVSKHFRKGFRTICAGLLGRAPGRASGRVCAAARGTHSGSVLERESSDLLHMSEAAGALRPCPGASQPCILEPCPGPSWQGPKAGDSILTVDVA
HSV replic up: increases HSV replication in cells; HSV replication augmentation in cells, fold increase; maximum fold increase; 220,000 tested, 0.005% active; AID 1956;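 active = peak rise of 1.5-fold or more in the series; inconclusive = self-fluorescent or not available for retest; tested in PC3 cells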;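 note: first round at 10 µM; read as green reporter fluorescence; hits show the peak of a series up to 25 µM; 1 = signal of infected wells without compound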
INS promoter inh cell count: recorded beside INS promoter inh, whose call it bears; normalized cell count, %; measured here: cell count, toxicity; reference of the scale not given here;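 cells exposed to compound for 48 h; stained nuclei by imaging scaled within each plate; lower means fewer cells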
HSV replic up primary fold: also measured in HSV replic up; calls as there; fold increase; compound at 10 µM; measured here: primary screen fold increase 10 uM; tested in PC3 cells;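 GFP signal in the first replicate; 1 = infected wells without compound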
* hit, by the source's call; i = inactive; ? = inconclusive; nt = not tested or not shown. Compounds were not picked by outcome; about 1.3% have a hit in one of these screens.

SMILES,HSV replic up,INS promoter inh cell count,HSV replic up primary fold,INS promoter inh,PKD1 inh,GALR2 ag,RGS16-Gao
CCCCNC(=S)NNC(=O)c1csc(C(C)C)c1,i,98,0.85,60,-2,-1.2,125
c1ccc(-c2ncc3ccccn23)cc1,i,nt,1.2,nt,nt,nt,93
O=C(O)c1cc(-c2ccncc2)nc2ccc(F)cc12,i,108,0.88,-12,-9,-0.5,109
CCOc1ccc(S(=O)(=O)Nc2cccnc2)cc1,i,81,0.98,-12,2,-0.8,102
COc1ccc2nc(SCC(=O)Nc3c(C)cc(C)cc3C)[nH]c2c1,i,177,0.91,-26,3,-0.3,101
O=CNc1ccc(S(=O)(=O)NCc2ccccc2)cc1,i,88,0.94,9,2,-3.4,103
Cc1ccc(OCCCC(=O)Nc2ccc(S(=O)(=O)Nc3ccccn3)cc2)cc1,i,nt,0.9,nt,-4,nt,103
Cc1noc(NS(=O)(=O)c2ccc(NC(=O)CSc3nnc4c(n3)[nH]c3ccccc34)cc2)c1C,i,90,0.92,-18,-11,-1.4,107
c1ccc2c(c1)CCN(c1nc3ccccc3n3cnnc13)C2,i,nt,0.8,nt,-7,-2.1,99
CSC(=O)NC12CC3CC(CC(C)(C3)C1)C2,i,139,1,-10,-3,-0.2,118
COc1ccccc1-c1ccc(SCc2ccc(C)cc2)nn1,i,151,0.97,20,-2,nt,105
COC1CCN(C(=O)CC2C(=O)NCCN2CC2CCCCC2)CC1 (stereo unspecified),i,nt,0.99,nt,3,nt,97
CCOC(=O)CC1C(=O)NCCN1S(=O)(=O)c1ccc(Cl)cc1 (stereo unspecified),i,67,0.96,-7,-16,-1.3,110
Cc1sc(NC(=O)c2ccccc2)c(C(=O)N2CCN(C)CC2)c1C,i,119,1,-43,1,0.2,103
Cc1cccc(CC2SC(N3CCN(c4ccccc4)CC3)=NC2=O)c1 (stereo unspecified),i,132,0.97,20,-11,-0.5,103
COc1ccc(-c2nc(CCNS(=O)(=O)c3ccc4c(c3)OCCO4)cs2)cc1,i,nt,0.94,nt,7,-2.8,101
O=C(NCc1ccccc1)Nc1cccn(Cc2ccccc2)c1=O,i,nt,1,nt,6,-0.8,102
O=C(COC(=O)c1cccs1)NCc1ccc2c(c1)OCO2,i,nt,0.97,nt,7,-0.5,99
CCCCn1c(=S)[nH]c2c(oc3ccc(Cl)cc32)c1=O,i,88,0.9,11,1,-1.9,-19*
CC(=O)N1c2c(ccc3ccccc23)C(C)CC12CCCCC2 (stereo unspecified),i,135,1.1,12,-6,-2.3,104
CC(=O)Nc1ccc(S(=O)(=O)Oc2ccc(N3C(=O)C4CCCCC4C3=O)cc2)cc1 (stereo unspecified),i,155,0.87,-44,12,-2.6,100
O=C(NCc1ccco1)c1ccc(Cn2c(=O)c3ccccc3n(Cc3cccc(Cl)c3)c2=O)cc1,i,42,0.94,61,7,-2.8,125
CN1C(=S)SC(/[N+]([O-])=C\c2ccc(Cl)cc2)C1(C)C (stereo unspecified),i,117,0.99,-13,-1,0.0,103
CCOC(=O)Cn1c(C)nc2c(C(=O)OCC)sc(C)c2c1=O,i,132,0.86,-76,-15,0.7,103
COc1cccc(OC)c1C(=O)N1CCN(Cc2ccc3c(c2)OCO3)CC1,i,75,0.9,-29,1,2.1,126
CC(NC(=O)/C=C/c1ccc(Br)cc1)c1ccc(Cl)cc1 (stereo unspecified),i,95,0.97,-43,0,-2.2,102
O=C(Nc1ccc(F)cc1F)Nc1ccc(F)cc1F,i,98,1.3,0,6,nt,102
O=[N+]([O-])c1nn(-c2ccc3c(c2)OCCO3)n(O)c1=NC1CCCCCC1,i,110,1.2,37,-4,-3.5,99
Nc1ncccc1OCc1cccc(C(F)(F)F)c1,i,112,1,-11,-6,nt,103
CCN(CC)CCNC(=O)C(C(=O)c1ccccc1)n1ccccc1=O (stereo unspecified),i,nt,1.1,nt,-16,-2.0,104
NC(=O)c1ccc(NC(=O)CCc2nc3ccccc3s2)cc1,i,nt,1.2,nt,-9,nt,82
C=CCc1cccc2cc(C(=O)N3CCN(c4ccccn4)CC3)c(=O)oc12,i,162,1.1,-36,-6,nt,108
O=C(N/N=C/c1ccco1)c1csc2c1CCCC2,i,nt,1,nt,nt,nt,102
Cc1nccn1CCc1n[nH]c(=S)n1Cc1ccccc1,i,59,0.93,-71,-1,-2.7,101
Cc1cccc(NC(=O)NNC(=O)c2ccc(C)c([N+](=O)[O-])c2)c1,i,nt,1,nt,-5,nt,74
Cc1occc1-c1nnc(SCC(=O)NCC2CCCO2)n1C (stereo unspecified),i,216,0.99,-8,-8,-3.1,100
Cc1ccc(C)c(NC(=O)C2C3CCCC2C3c2ccccc2)c1 (stereo unspecified),i,104,1,-17,-6,-0.4,97
COC(=O)C(C)Nc1cccc(Br)c1 (stereo unspecified),i,nt,0.96,nt,nt,nt,102
CC(C)NC(=O)CSc1nnc(CNC(=O)OC(C)(C)C)n1C,i,nt,0.95,nt,nt,nt,136
Cc1cccc(NCc2ccccc2O)n1,i,nt,1,nt,0,-1.5,95
Cc1c(C(=O)N2CCCc3ccccc32)sc2nc(-c3ccccc3)cn12,i,nt,1,nt,nt,nt,104
CC(=O)N1CCN(c2nc(-c3cccs3)nc3ccccc23)CC1,i,nt,1,nt,7,nt,100
O=CN1CCN(S(=O)(=O)c2ccc(Cl)c(C(=O)O)c2)CC1,i,nt,1,nt,4,nt,96
Cc1nc(C(C)NC(=O)CCc2nnc(CCCc3ccccc3)o2)c(C)s1 (stereo unspecified),i,104,1,-22,-1,nt,108
CC12CCC(C(=O)N(CSC(=S)N/N=C\c3ccccc3O)C1=O)C2(C)C (stereo unspecified),i,129,0.93,70,7,-1.9,98
Cc1ccc(F)cc1NCC(=O)Nc1ccc(Br)cc1,i,nt,1,nt,-2,-1.1,94
O=C(Nc1ccc(O)cc1)C1CCCN1S(=O)(=O)c1ccc(F)cc1 (stereo unspecified),i,50,0.92,43,-1,-1.1,101
O=C(NCc1n[nH]c(=S)n1-c1ccc(Br)cc1)c1cccs1,i,93,1,-36,-3,nt,99
COC(=O)c1sc2cc([N+](=O)[O-])cc(SCC(C)C)c2c1N,?,90,nt,i,-2,-1.0,118
CN(Cc1ccc2nsnc2c1)Cc1nc(Cc2cccc(F)c2)no1,i,nt,1.1,nt,5,nt,98

Three of the entries above in order of the HSV replic up primary fold value, rising:
molecule	HSV replic up primary fold
CC12CCC(C(=O)N(CSC(=S)N/N=C\c3ccccc3O)C1=O)C2(C)C (stereo unspecified)	0.93
Cc1c(C(=O)N2CCCc3ccccc32)sc2nc(-c3ccccc3)cn12	1
CN(Cc1ccc2nsnc2c1)Cc1nc(Cc2cccc(F)c2)no1	1.1

Remaining list, next part:
SMILES,HSV replic up,INS promoter inh cell count,HSV replic up primary fold,INS promoter inh,PKD1 inh,GALR2 ag,RGS16-Gao
Oc1cccc(/C=N/NC(=S)NCCN2CCOCC2)c1O,i,nt,0.81,nt,-2,nt,100
Cc1cc(/C=C(\C#N)C(=O)O)c(C)n1-c1ccc(Br)cc1,i,nt,1,nt,nt,nt,96
O=C(OCc1cc2ccccc2[nH]c1=O)c1cccnc1,i,172,1,18,-8,0.5,103
CCCN(CCC)C(=S)NC(=O)c1ccc(-c2ccccc2)cc1,i,115,1.2,-50,-20,-3.8,101
CCOC(=O)/C=c1\s/c(=C\c2sccc2C)c(=O)n1CC(=O)NCc1ccc(C)cc1,i,nt,0.95,nt,0,nt,100
CCn1c(SCC(=O)Nc2cc(C)on2)nnc1-c1ccc(OC)cc1,i,nt,0.92,nt,8,nt,102
Cc1cc(C)n(-c2ncc3c(n2)N(C)CCOC3=O)n1,i,nt,0.9,nt,nt,nt,98
CCNC(=O)n1nccc1C(C)Oc1cccc(C(F)(F)F)c1 (stereo unspecified),i,80,0.82,-18,-2,0.8,106
Cc1nc2c(C(=O)N3CCCC3)cnn2c(C)c1Cc1c(F)cccc1Cl,i,87,0.92,-39,3,-0.8,105
CNC(=S)/N=C(/Nc1ccccc1)c1ccccc1,i,97,0.98,-122,-3,nt,104
Cc1nnc(C)c2c(C)n(N)c(C)c12,i,nt,1.1,nt,nt,nt,91
Cc1csc(NC(=O)C(NC(=O)c2ccccc2F)C(C)C)n1 (stereo unspecified),i,105,0.98,-18,-4,nt,127
Cc1ccsc1C(=O)OCC(=O)c1cc(C)n(CC2CCCO2)c1C (stereo unspecified),i,95,0.87,6,-8,-2.1,94
COc1cc(CNn2nnnc2N)cc(Br)c1OCc1c(Cl)cccc1Cl,i,104,0.88,-3,-5,-3.4,107
Cc1ccc(Sc2ncnc3onc(C)c23)c(C)c1,i,107,0.94,45,2,nt,100
CCC(CC)C(=O)Nc1cccc(C(=O)Nc2ccc(OC)cc2[N+](=O)[O-])c1,i,112,1,23,-8,-1.1,95
CC1=C(C(N)=O)C(c2ccc(Cl)cc2Cl)n2ncnc2N1 (stereo unspecified),i,120,0.91,33,4,-3.4,99
CC(=O)NCCc1nc2ccccc2n1CCOc1ccc(C)cc1,i,nt,0.81,nt,nt,nt,100
Cc1cc(C)nc(NC2=NCC(=O)N2c2cc(Cl)cc(Cl)c2)n1,i,152,1,0,0,-0.4,101
COCCCNC(=S)N/N=C/c1ccc2ccccc2c1,i,nt,0.94,nt,nt,nt,93
COc1ccc(-n2cc(C(=O)c3ccccc3O)cn2)cc1,i,nt,0.92,nt,5,nt,99
CN1CCc2c(sc3c2c(=O)n(-c2ccccc2)c2nncn32)C1,i,102,0.96,-30,7,-1.7,99
CNC(=O)c1cc(Nc2nnc(C)c3ccccc23)ccc1OC,i,133,0.94,26,9,-3.3,101
COc1nc(Nc2cccc(C)c2)nc(N2CCCCC2)n1,nt,69,nt,12,3,-0.4,104
NC(=O)C(=CNc1nc(-c2ccc(Cl)c(Cl)c2)cs1)C(N)=O,i,nt,0.94,nt,nt,nt,103
Cc1ccc(C(=O)c2sc3nc4c(cc3c2N)CCC4)cc1,i,nt,0.61,nt,12,-0.8,108
CCCNC(=O)c1ccccc1NS(=O)(=O)c1ccc2c(c1)OCCO2,i,79,1,36,8,-0.3,101
C#CCOCCOCCOCCNc1nc(N2CCN(C(=O)[C@H](CCC(=O)O)n3cc(C(N)CO)nn3)CC2)nc(N2CCN(C(=O)[C@H](Cc3ccc(O)cc3)n3cc(C(N)CC(C)C)nn3)CC2)n1 (stereo partly specified),nt,nt,nt,nt,9,nt,103
Cc1cccc(NC(=S)NCCc2ccc3c(c2)OCCO3)c1C,i,141,1.1,-43,-7,nt,107
CCN(Cc1cc2ccccc2[nH]c1=O)C(=O)c1cccnc1,i,138,1.1,41,-13,-1.1,110
COC(=O)c1ccc(C23CC4(C2)[C@H](CN(CC2CCCCC2)[C@@H]4c2ccccc2)C3c2ccccc2)cc1 (stereo partly specified),i,nt,0.88,nt,nt,nt,95
Cc1ccsc1C(=O)Nc1ccc2c(c1)OCCO2,i,nt,1.3,nt,-5,-1.8,106
CCCC(=O)Nc1cc(-c2nn(C)c(=O)c3ccccc23)ccc1N1CCCCC1,i,94,0.75,-6,1,-1.1,nt
Cc1ccc(Sc2ncccc2NC(=O)c2ccccc2Cl)cc1,i,nt,1.4,nt,nt,nt,104
c1ccc(CC2CCN(c3nc4ccccc4n4nnnc34)CC2)cc1,i,111,1.1,6,7,-1.6,97
O=C(/C=C/c1ccco1)N1CCCC(c2ccccc2)C1 (stereo unspecified),i,nt,0.94,nt,-3,nt,105
N#C/C(=C\c1c(F)cccc1Cl)c1nn(-c2ccccc2)c(-n2cccc2)c1C#N,i,nt,0.82,nt,nt,nt,102
Cc1cc(C)c(C#N)c(Cl)n1,i,74,1.1,13,1,-2.9,60
Cn1c2c(c(=O)n(C)c1=O)C(C(F)(F)F)(C(F)(F)F)N=C(CCC1CCCCC1)N2,i,113,0.64,-19,-6,1.0,116
CCc1cccc(OCCCn2ccnc2)c1,nt,112,nt,-15,-10,-1.0,111
O=C(NCc1nc2ccccc2[nH]1)C1=C[C@@H](C2CC2)C[C@@H](OCc2ccc(CO)cc2)O1,i,nt,0.81,nt,4,nt,101

From PubChem BioAssay
